Bioassay records from PubChem BioAssay.
gsp antag = qHTS for Antagonists of gsp, the Etiologic Mutation Responsible for Fibrous Dysplasia/McCune-Albright Syndrome: qHTS | gsp-mutant cells, cAMP HTRF, 30 min; control for the full effect not named in the record | Potency, µM (titrated, usually from 76.9 µM), inactives show at the top dose activity change, negative = inhibition, usual class: inhibitors | 340,000 tested, 0.4% active; active = falling curve of any shape with a large fitted effect; inconclusive = falling curve, mostly with a smaller effect; inactive = flat or rising curve; cell line not stated here;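 note: intracellular cAMP measured with PDE inhibitor Ro 20-1724 present during compound exposure; potency is the fitted concentration of half-maximal effect; % is set by controls: 0 for no effect and ±100 for the full control effect; nearly all actives have a fitted effect of over 65% in size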
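HTRF cAMP measurement after 30 min RT detection following 30 min, 37C compound treatment alongside […] (added as 300 uM solution) in G418-selected cells seeded at 2000/well and grown 16–24 h.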
PINK1 modulator = A Quantitative High throughput Screen to Identify Chemical Modulators of PINK1 Expression; PINK1 immunofluorescence, high-content cytometry, 24 h; Potency, µM (titrated, usually from 76.6 µM), for the others: at the highest dose activation (PINK1 increase), most hits filed as activators; AID 624263, 2012; 410,000 tested, 0.2% active; active = well fitted activation curve with a large enough effect; inconclusive = small, poorly fitted or top-dose-only effect; inactive = flat fitted curve, though single readings scatter; cell line not stated here;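 note: potency is the fitted concentration of half-maximal effect; % of control where 0% means no effect; nearly all actives have a fitted effect of over 65% in size; a mitochondrial uncoupler was the plate control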
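Stable cell line, 250 cells/well, 12 h attachment; compounds pinned at 5 concentrations, 24 h; CCCP control. Fixed with nuclear dye, primary antibodies 12 h at 10 degrees C, secondary plus cell stain; laser-scanning cytometer read.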
D2 agonist = Beta-Arrestin HTS for Positive Allosteric Modulators of the Human D2 Dopamine Receptor: Agonists; 360,000 tested, 0.084% active; activation, % (no concentration beside the values); D(2) dopamine receptor (Homo sapiens), P14416; DiscoveRx PathHunter D2 beta-arrestin, luminescence, 90 min; 100% = 57 uM dopamine signal; in the data active = activation above about 40%; inconclusive = about 15% to 40%; inactive = below about 15%; note: compound concentration not given in the record; the text of the record calls up to 30% inactive
Target sequence (P14416 whole entry, looked up): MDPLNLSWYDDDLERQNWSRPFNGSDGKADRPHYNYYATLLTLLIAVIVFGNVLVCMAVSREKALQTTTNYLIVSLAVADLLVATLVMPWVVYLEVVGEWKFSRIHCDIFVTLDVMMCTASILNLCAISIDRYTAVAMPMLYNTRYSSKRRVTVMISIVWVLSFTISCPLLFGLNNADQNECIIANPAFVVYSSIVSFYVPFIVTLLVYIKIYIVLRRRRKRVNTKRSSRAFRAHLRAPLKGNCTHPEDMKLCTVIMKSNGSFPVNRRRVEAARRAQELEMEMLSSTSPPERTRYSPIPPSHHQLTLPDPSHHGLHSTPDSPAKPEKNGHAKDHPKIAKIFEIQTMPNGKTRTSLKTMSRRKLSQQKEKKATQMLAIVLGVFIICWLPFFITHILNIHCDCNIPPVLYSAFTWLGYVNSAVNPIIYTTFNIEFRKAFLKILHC
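Agonist mode: compounds alone added to overnight-plated D2 PathHunter cells for 90 min at 37 C, with 57 uM final dopamine (EC100) defining full response. Beta-arrestin recruitment detected by chemiluminescent reagent, read after 1 h at ambient temperature.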
Sfp PPTase inh = qHTS Assay for Inhibitors of Bacillus subtilis Sfp phosphopantetheinyl transferase (PPTase) | AID 1490, 2009 | Biochemical Sfp PPTase activity, qHTS | 310,000 tested, 3.5% active | 4'-phosphopantetheinyl transferase ffp (Bacillus subtilis), Q9F4F7 | Potency, µM, without a hit: max response, negative = inhibition, most hits filed as inhibitors; active = well fitted inhibition curve with a large enough effect; inconclusive = small, poorly fitted or top-dose-only effect, or another doubt; inactive = no such curve, though single readings can be large or run the other way;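 note: the enzyme is Sfp with the accession as filed and its product quenches rhodamine fluorescence; potency is the fitted concentration of half-maximal effect; 0% = enzyme reaction without inhibitor and -100% = no enzyme wells; top concentration of the series not given in the record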
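Fluorescence-quenching assay: 15 nM Sfp-PPTase preincubated 15 min at room temperature with compound, then 5 uM rhodamine-CoA and 12.5 uM BHQ-2-labelled YbbR peptide added. Fluorescence (ex 525/em 598 nm) read at start and after 30 min; difference gives rate.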
ClpP mod = qHTS Assay for Activators of ClpP; ATP-dependent Clp protease proteolytic subunit (Bacillus subtilis (strain 168)), P80244; purified B. subtilis ClpP, FRET peptide cleavage, 20 min; Potency, µM (top dose mostly 57.5 µM), without a hit: at the top dose activity change, negative = active; 340,000 tested, 1.9% active; active = well fitted falling curve with a large enough effect; inconclusive = small, poorly fitted or top-dose-only effect; inactive = no such curve, though single readings can be large or run the other way; note: potency is the fitted concentration of half-maximal effect; the source files actives as falling curves though it sought activators and does not explain the sign; nearly all actives have a fitted effect of over 65% in size; many hits overshoot -100%
Target sequence (P80244 whole entry, looked up): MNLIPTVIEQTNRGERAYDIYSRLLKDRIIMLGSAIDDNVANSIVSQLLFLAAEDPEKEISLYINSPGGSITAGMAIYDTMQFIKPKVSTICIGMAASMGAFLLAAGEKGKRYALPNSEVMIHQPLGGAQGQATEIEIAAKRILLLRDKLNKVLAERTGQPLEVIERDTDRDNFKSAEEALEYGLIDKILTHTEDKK
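ClpP 10 microg/mL final, pH 8 Tris/KCl buffer with BSA, glycerol, Tween-20; compound pinned in; FRET-FV substrate; RT 20 min; Ex320/Em430; ΔFRET vs ADEP 5.8 microM, DMSO, no enzyme.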
gsp ag = qHTS for Agonist of gsp, the Etiologic Mutation Responsible for Fibrous Dysplasia/McCune-Albright Syndrome: qHTS; gsp mutant cells, cAMP HTRF, 30 min; control for the full effect not named in the record; Potency, µM (highest dose often 76.9 µM), for the others: at the top dose activation (cAMP increase), actives largely listed as activators; 340,000 tested, 0.13% active; AID 624287, 2012; active = well fitted activation curve with a large enough effect; inconclusive = small, poorly fitted or top-dose-only effect, or another doubt; inactive = no such curve, though single readings can be large or run the other way; cell line not stated here;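 note: phosphodiesterase inhibitor Ro 20-1724 added with compounds to block cAMP breakdown; potency is the fitted concentration of half-maximal effect; nearly all actives have a fitted effect of over 60% in size; about a fifth of the inactives were tested at one dose only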
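Cells in DMEM/10% FBS with G418 were pretreated with compounds in DMSO plus […] (300 uM stock) for 30 min at 37C. cAMP was measured by HTRF (cAMP-d2 plus anti-cAMP antibody-K) after 30 min at room temperature.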
Menin MLL FP FL = qHTS Assay for Inhibitors Targeting the Menin-MLL Interaction in MLL Related Leukemias: Competition With Fluorescein Labeled MLL-derived Peptide | Fluorescence polarization, fluorescein-MLL peptide displacement from menin | FP activity change, % at 61.4 µM | 290,000 tested, under 10 active | AID 1766, 2009; inconclusive = falling polarisation curve, or a change in total fluorescence; inactive = total fluorescence flat and polarisation flat or rising; no compound was filed as active; the % refers to the polarisation; negative = inhibition;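 note: % of control where 0% means no effect; inhibitors lower the polarisation; unlabelled MLL peptide was the positive control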
Numbers without * were called inactive; ? = inconclusive; · = no result given; [ ] = remark or other dose.

SMILES	gsp antag	PINK1 modulator	D2 agonist	Sfp PPTase inh	ClpP mod	gsp ag	Menin MLL FP FL
CCNC(=O)C1(C)CCN(C(=O)c2ccc(F)cc2Cl)C1 (stereo unspecified)	·	1.3%	-2.9	·	1.3%	·	·
CN(Cc1ccccc1)C(=O)CN1C(=O)C2C3C=CC(C3)C2C1=O (stereo unspecified)	3.7%	-0.3%[38.3 µM]	-1.3	7.3%	-0.8%	2.4%	2.4
CCOc1ccc(C(=O)N[C@H](C(=O)N2CCN(c3ncccn3)CC2)C(C)C)cc1	·	-0.1%	-4.5	·	-9.7%	?	·
Cc1cnc(NC(=O)C2CC(=O)N(c3ccc4c(c3)OCCO4)C2)s1 (stereo unspecified)	0.3%	6.3%	-1.4	·	28.2µM*	-19.4%	·
Cc1cccc(-c2oc3ccc(-c4ccc5c(c4)OCO5)cc3c2C(=O)OCc2ccc(O)cc2)c1	0.4%	1.8%	-2.6	-0.1%	4.6%	-15.3%	-1.7
CCC1CCCCN1CCCNC(=O)Cn1nc(-c2ccc(C)cc2)ccc1=O (stereo unspecified)	0.0%	·	-3.1	14.9%	?	2.4%	2.0
CC(C)(C)N=C1NN=C(c2ccc(Cl)cc2)CS1	-1.2%	?	-14.6	1.3%	-1.8%	-4.4%	-0.3
CN(C(=O)c1ccc(NC(=O)Cc2cccc([N+](=O)[O-])c2)cc1)C1CC1	1.6%	1.2%	1.2	·	1.8%	-29.1%	·
Cc1cc(-c2onc(C)c2C(N)=O)no1	-1.0%	0.7%	8.5	0.7%	·	12.4%[15.4 µM]	1.4
COc1ccc(C(=O)N2CCN(c3cccc(Cl)c3)CC2)cc1	-14.7%	-2.3%	-3.7	10.3%	0.7%	-4.6%	-1.2
COc1ccc(CN(C)C(C)C(=O)N(C)CC(=O)Nc2ccc(C)cc2)cc1F (stereo unspecified)	6.1%	-0.5%	0.0	·	1.0%	-15.4%	·
CC(/C=C1\SC(=S)N(C(C(=O)O)c2ccccc2)C1=O)=C\c1ccccc1 (stereo unspecified)	-11.3%	15.3%	1.1	-11.7%	-2.2%	-48.3%[inhibitor]	8.3

Two compounds picked at random from those above, as already listed:
SMILES	gsp antag	PINK1 modulator	D2 agonist	Sfp PPTase inh	ClpP mod	gsp ag	Menin MLL FP FL
CN(Cc1ccccc1)C(=O)CN1C(=O)C2C3C=CC(C3)C2C1=O (stereo unspecified)	3.7%	-0.3%[38.3 µM]	-1.3	7.3%	-0.8%	2.4%	2.4
Cc1cccc(-c2oc3ccc(-c4ccc5c(c4)OCO5)cc3c2C(=O)OCc2ccc(O)cc2)c1	0.4%	1.8%	-2.6	-0.1%	4.6%	-15.3%	-1.7

Next part
SMILES	gsp antag	PINK1 modulator	D2 agonist	Sfp PPTase inh	ClpP mod	gsp ag	Menin MLL FP FL
C#CCN(C[C@@H]1[C@@H](OC(=O)NCc2ccccc2F)[C@@H](OC(=O)NCc2ccccc2F)Cn2c(=O)n(CCCCCC)c(=O)n21)S(=O)(=O)c1ccc(C)cc1	·	4.2%	-9.1	·	-1.6%	17.1%	·
COc1ccc(-c2ccc(OC)c([C@H]3[C@H]4C=CC[C@@H](C)[C@@H]4C(=O)N3Cc3ccccc3)c2)cc1C	11.2%	3.1%	0.9	4.0%	-5.7%	·	1.8
COC(=O)[C@]1(Cc2ccccc2)N[C@H](CN(C)C(=O)COc2ccccc2)[C@@H]2C(=O)N(C)C(=O)[C@@H]21	-7.2%	-1.2%	-1.3	·	-0.4%	·	·
CC(=O)NCCNc1ncncc1-c1ccccc1C(F)(F)F	·	-0.9%	·	-23.2%	·	·	-7.2
O=C(CSc1nnc(-c2ccco2)o1)c1ccc[nH]1	0.0%	2.2%	-2.3	?	·	-9.0%[15.4 µM]	14.4
O=C(O)CSCc1nc2scc(-c3ccccc3)c2c(=O)[nH]1	·	1.3%	-2.2	24.9%	·	9.3%[15.4 µM]	1.3
COc1cccc2cc(C(=O)NC3CC(C)(C)NC(C)(C)C3)c(=O)oc12	2.0%	-0.4%	-0.5	·	-1.3%	-16.5%	·
Cc1nc(C)c(-c2nnc(-c3cccc(S(=O)(=O)N(C)C)c3)o2)cc1C(=O)NN	1.1%	1.5%	9.0	14.2%	-1.6%	?	-0.2
CCn1c(CCC(=O)N(C)CC(=O)Nc2cccc(F)c2)nc2cc(S(=O)(=O)N(C)C)ccc21	-0.6%	0.6%	-6.4	·	1.3%	-35.8%	·
CC(=O)Nc1ccc(NC2CCCCC2NS(=O)(=O)c2ccc(Cl)cc2)cc1 (stereo unspecified)	3.9%	9.7%	-2.1	14.6%	0.8%	2.3%	-0.1
O=C(N/N=C/c1oc(O)c2ccccc12)c1ccccc1	5.2%	-0.1%	-0.1	13.1%	1.8%	11.2%	-0.4
CCCCC(c1nnnn1CS(=O)(=O)c1ccc(C)cc1)N1CCN(c2ccccc2)CC1 (stereo unspecified)	5.0%	1.9%	-4.7	20.4%	-0.2%	9.9%	-2.2
O=C(c1nc2n(n1)C(c1ccc(Cl)cc1)C=C(c1ccccc1)N2)N1CCOCC1 (stereo unspecified)	-7.4%	-0.1%	0.8	-22.6%	-19.8%	13.4%	?
COc1ccc(C(NC(=O)C(C)(C)C)NC(=O)C(C)(C)C)cc1	12.1%	-0.8%	-3.1	-14.4%	-2.5%	1.3%	-4.6
Nc1nc(SCC(=O)Nc2ccc3c(c2)OCO3)n[nH]1	5.1%	0.1%	-1.2	22.6%	0.8%	-3.6%[15.4 µM]	0.1
O=C(CN1CCCCCC1=O)N1CCN(S(=O)(=O)c2cccs2)CC1	-9.1%	1.0%	-2.7	14.5%	1.7%	19.6%	-4.5
COc1ccc(OC)c(NC(=O)c2cccnc2Sc2ccccc2)c1	11.3%	0.7%	-5.1	-9.1%	-1.9%	0.3%[15.4 µM]	4.0
Cc1ccc(Cl)cc1NC(=O)CNCC(c1ccccc1)N(C)C (stereo unspecified)	11.6%	-0.8%	-2.3	-20.3%	-0.4%	-1.6%[15.4 µM]	1.2
C/C(=N\NC(=O)c1ccccc1)c1ccc(N2CCOCC2)cc1	5.8%	-1.3%	2.2	-13.7%	-4.5%	?	4.9
Cc1cc(C(F)(F)F)c(C#N)c(SCC(=O)Nc2nc3cc(Br)ccc3s2)n1	-16.9%	14.1µM*	-5.1	6.1%	·	3.7%[15.4 µM]	2.0
Cc1cccc(NC(=O)NNC(=O)c2sccc2-n2cccc2)c1	-2.9%	-1.7%	-0.4	8.9%	·	26.1%	1.5
O=C(Nc1ccc(F)cc1)c1nc2c(nnn2Cc2cccc3ccccc23)c(=O)[nH]1	?	-2.3%	-1.3	2.0%	·	?	5.5
CCN1CCN(C(=O)Nc2cccc(C(F)(F)F)c2)CC1	3.4%	-1.7%[38.3 µM]	1.2	-5.8%	0.3%	0.0%	2.3
CC(=O)c1c(C)[nH]c(C(=O)OCC(=O)Nc2cc(C(F)(F)F)ccc2N2CCOCC2)c1C	-6.7%	10.8%	0.0	-1.8%	-2.8%	25.4%	0.6
CCN(CC)CCNC(=O)c1ccc(NC(=O)Nc2cccc3ccccc23)cc1	11.6%	8.8%	-2.4	-25.4%	?	-0.8%[15.4 µM]	-5.4
COc1cc(-c2nnc(-c3cccs3)o2)cc(OC)c1OC	-0.4%	2.9%	-0.8	1.9%	?	0.0%	-0.3
CC(C)=C(c1ccc(Cl)cc1)c1c(N)ncnc1N	·	-0.4%	1.4	·	-0.7%	?	·
Cc1ccc(S(=O)(=O)N2CCN=C2SCc2c(F)cccc2Cl)cc1	-7.7%	2.4%	-1.1	-11.1%	-1.5%	4.7%[15.4 µM]	·
COc1ccc(Cc2noc(CN(C)CCN3CCc4ccccc4C3)n2)cc1OC	-1.4%	0.4%	-1.8	?	-10.5%	-0.2%	2.8
COc1ccccc1N(CC(=O)Nc1ccc2c(c1)OCCO2)S(C)(=O)=O	-6.3%	0.3%	-0.2	4.2%	0.3%	-51.8%[inhibitor]	0.9
COc1ccc2sc(N(CCN(C)C)C(=O)c3cc(Cl)sc3Cl)nc2c1	-8.1%	0.9%	-1.8	-24.0%	0.5%	10.9%	3.3
CCCOc1ccc(C(=O)OCC(=O)c2c(N)n(C)c(=O)n(C)c2=O)cc1OC	18.5%	1.2%	-1.5	3.8%	·	-2.4%[15.4 µM]	-0.3
CC(=O)c1oc2ccccc2c1NC(=O)COC(=O)c1ccc(-n2nc(C)cc2C)cc1	-2.8%	9.0%	-2.2	-4.1%	-5.8%	-2.4%	3.8
c1cc(CNc2ccc3c(c2)OCO3)ccn1	-5.2%	-0.6%	2.1	?	-8.2%	4.5%	-18.8
COc1cc(OC)c(NC(=O)CC(C)=O)cc1Cl	-1.7%	1.5%	-0.7	-14.0%	-2.9%	14.8%	5.2
Cc1noc(C)c1S(=O)(=O)N(CC(=O)N1CCCC1)c1ccc(C(C)C)cc1	-4.7%	2.6%	-4.7	14.9%	-2.7%	1.4%	-1.1
Cc1cc(NC(=O)COC(=O)COc2ccc(C(=O)c3ccccc3)cc2)no1	-3.5%[15.4 µM]	1.4%	-0.2	7.8%	-1.4%	7.9%	0.5
CCOc1ccc(S(=O)(=O)Nc2ccccc2C(=O)NCC2CCCO2)cc1 (stereo unspecified)	-7.5%	-1.1%[38.3 µM]	2.9	7.6%	28.2µM*	-5.2%	2.9
CCOC(=O)c1ccc(Oc2cn[nH]c2-c2ccc(O)cc2O)cc1	-12.6%	-0.4%	5.1	0.2%	-0.5%	-1.8%	-2.3
CCn1cc(Cl)c(C(=O)Nc2cccc(C(F)(F)F)c2)n1	-5.8%	2.0%	-3.2	29.1%	-2.6%	6.8%[15.4 µM]	-2.2
